# RGS16-Gao: modulators of RGS16 binding to Galphao, primary screen, biochemical, human proteins, multiplexed bead flow cytometry | actives 0.38% (n = 220,000) | Regulator of G-protein signaling 16 (Homo sapiens) + Guanine nucleotide-binding protein … | AID 1441, 2008 | bead-based flow cytometry RGS16-Galphao binding, fluorescence; actives lie on both sides | binding response (% of control), % at 10 µM;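 active means below 25% or above 175%, edge rows of some plates excepted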;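 further: Galphao activated by GDP with aluminum fluoride before binding; 100% = wells without compound and 0% = beads without RGS; some results beyond the cut were filed as inactive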
# Target sequence (O15492 whole entry, looked up): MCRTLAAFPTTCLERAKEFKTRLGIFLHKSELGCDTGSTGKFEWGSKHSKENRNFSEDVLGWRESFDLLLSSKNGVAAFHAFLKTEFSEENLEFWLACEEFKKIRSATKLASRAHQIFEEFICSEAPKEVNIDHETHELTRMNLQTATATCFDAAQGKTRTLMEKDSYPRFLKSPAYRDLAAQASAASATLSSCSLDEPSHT
# Target sequence (P09471 whole entry, looked up): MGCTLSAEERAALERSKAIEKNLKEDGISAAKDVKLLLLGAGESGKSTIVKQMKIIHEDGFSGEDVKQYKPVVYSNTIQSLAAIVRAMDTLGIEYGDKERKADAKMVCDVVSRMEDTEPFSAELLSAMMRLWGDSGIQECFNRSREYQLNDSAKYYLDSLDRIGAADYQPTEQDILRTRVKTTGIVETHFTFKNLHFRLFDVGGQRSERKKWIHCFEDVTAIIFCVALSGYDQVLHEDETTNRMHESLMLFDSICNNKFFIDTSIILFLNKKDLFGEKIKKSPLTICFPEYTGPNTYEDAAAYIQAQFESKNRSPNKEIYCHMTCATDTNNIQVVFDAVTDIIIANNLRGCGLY
# GALR2 agonist: GALR2 receptor agonists, primary screen, cell-based. Galanin receptor type 2 (Homo sapiens), O43603. GALR2-expressing cells, agonist activation read-out. activation, %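 (tested at 5 µM)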. actives 0.48% (n = 140,000);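 active means above mean plus 3 SD of all compounds, about 5% in these data, not always enough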;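 further: 0% = vehicle buffer wells and 100% = reference agonist at full effect; tested in CHO reporter cells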
# Target sequence (O43603 whole entry, looked up): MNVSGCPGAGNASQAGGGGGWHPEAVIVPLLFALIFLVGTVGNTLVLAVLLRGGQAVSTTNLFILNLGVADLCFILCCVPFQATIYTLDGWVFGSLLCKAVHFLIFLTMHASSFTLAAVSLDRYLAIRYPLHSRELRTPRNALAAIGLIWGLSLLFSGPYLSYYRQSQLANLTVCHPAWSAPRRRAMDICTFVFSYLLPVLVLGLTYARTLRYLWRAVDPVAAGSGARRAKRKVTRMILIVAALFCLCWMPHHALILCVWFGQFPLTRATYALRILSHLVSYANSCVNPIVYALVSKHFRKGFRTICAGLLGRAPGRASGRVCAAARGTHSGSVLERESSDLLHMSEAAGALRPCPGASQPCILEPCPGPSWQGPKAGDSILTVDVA
# INS promoter inh: inhibitors of insulin promoter-driven GFP, primary screen, imaging, TRM-6 cells (human fetal islet line), eGFP reporter, cell count | reporter expression induced with tamoxifen | inhibition, % at 2 µM | actives 0.9% (n = 130,000);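 active means inhibition above the mean plus 3 SD, with well images judged a real hit on visual review, cut at about 60% in these data, passing the limit was not always enough; inconclusive means inhibition over the cutoff but images rejected on review; inactive means inhibition not above the cutoff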
# PKD1 kinase inh: inhibitors of human PKD1 kinase, biochemical, fluorescence polarization | Serine/threonine-protein kinase D1 (Homo sapiens), Q15139 | PKD1 kinase fluorescence polarization assay | inhibition, %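 (about 10 µM by stock and volumes)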 | actives 0.056% (n = 200,000);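 active means inhibition of 50% or more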;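 further: controls were vehicle for no effect and a reference inhibitor for full effect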
# HSV augment: enhancers of HSV replication in host cells, fold increase, host cell viability | HSV replication augmentation in cells | maximum fold increase | actives 0.005% (n = 220,000);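 active means peak rise of 1.5-fold or more in the series; inconclusive means self-fluorescent or not available for retest; tested in PC3 cells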;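 further: first round at 10 µM; read as green reporter fluorescence; hits show the peak of a series up to 25 µM; 1 = signal of infected wells without compound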
# INS promoter inh cell count: recorded beside INS promoter inh, whose call it bears; normalized cell count, %; measured here: cell count, toxicity; reference of the scale not given here;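 cells exposed to compound for 48 h; stained nuclei by imaging scaled within each plate; lower means fewer cells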
# HSV augment primary fold: recorded beside HSV augment, whose call it bears; fold increase; compound at 10 µM; measured here: primary screen fold increase 10 uM; tested in PC3 cells;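 GFP signal in the first replicate; 1 = infected wells without compound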
# Numbers without * were called inactive; i = inactive; u = inconclusive; x = not tested or not shown.
SMILES,RGS16-Gao,GALR2 agonist,INS promoter inh,INS promoter inh cell count,PKD1 kinase inh,HSV augment,HSV augment primary fold
O=C(CSc1nc2ccsc2c(=O)n1CC1CCC(C(=O)O)CC1)c1ccc(Cl)cc1 (configuration not stated),104,x,41,66,-5,i,0.97
COc1ccc(C(=O)Oc2ccc[nH]c2=O)cc1,106,x,x,x,x,i,1.2
CC(C)(C)OC(=O)NCCc1nnc(SCc2cccc(Cl)c2)o1,88,x,x,x,x,i,1
CCCCNC(=O)CN1C(=O)C(CC)Oc2ccc(Cl)cc21 (configuration not stated),90,-0.9,x,x,-10,i,1.1
OCC1CCCCN1C(=S)NCc1ccco1 (configuration not stated),98,x,x,x,-1,i,1.1
COC(=O)c1c(NC(=O)c2ccc(Br)s2)sc2c1CCC2,102,-2.4,-397,99,0,i,1.1
COc1ccc(Cl)cc1NC(=O)NCCCl,102,-0.6,-36,131,-2,i,1.1
CSc1cnn(Cc2ccccc2)c(=O)c1SCc1ccccc1,101,-0.6,20,91,-1,i,0.88
CC1CN(S(=O)(=O)c2ccc(NC(=O)c3cc(-c4ccccc4O)n[nH]3)cc2)CC(C)O1 (configuration not stated),97,-1.2,x,x,-4,i,0.86
Cn1c2c(c(=O)n(C)c1=O)[C@@]1(C(=O)Nc3ccccc31)C(C#N)=C(N)O2,103,-1.6,x,x,24,i,1.1
Cc1cccc(C(=O)c2c(N)sc3c2CCCC3)c1,142,-0.6,-53,69,7,i,1.2
COc1cccc(-c2nn(-c3ccccc3)cc2CN(C)C(C)c2ccncn2)c1 (configuration not stated),111,x,-40,142,-14,i,0.91
Cc1cc2nc(-c3ccncc3)cc(C(F)(F)F)n2n1,109,x,-27,115,-1,i,1.1
Cn1c(NC(=O)CC(C)(C)C)cc(=O)n(C)c1=O,103,-0.9,x,x,-1,i,0.83
O=C(COc1nnc2ccccn12)N1CCN(S(=O)(=O)c2ccccc2)CC1,x,-4.2,-63,41,-1,i,0.98
COc1ccc(/C=N/NC(=O)CCc2ccccc2)cc1O,109,0.0,0,123,-4,i,0.8
O=C(NC1CCCc2ccccc21)C12CC3CC(CC(O)(C3)C1)C2 (configuration not stated),100,x,x,x,3,i,1.1
O=S(=O)(Cc1ccc(Cl)cc1)C1CCCCC1O (configuration not stated),89,x,x,x,x,i,1
O=C(COC(=O)CC1CC2CCC1C2)Nc1c(F)cccc1F (configuration not stated),103,x,0,114,1,i,0.71
O=C1NC(=S)S/C1=C\c1coc2ccc(O)cc2c1=O,99,x,x,x,x,i,1.3
O=C(Nc1ccc(Cl)cn1)c1ccc2ccccc2n1,103,-1.1,23,99,-9,i,0.85
CCc1cc(=O)oc2cc(OC(C)=O)cc(OC(C)=O)c12,99,1.0,12,121,17,i,0.92
O=C1CC(N2CCN(c3ccccc3)CC2)C(=O)N1c1ccc2c(c1)OCCO2 (configuration not stated),105,-1.9,-25,177,-6,i,0.66
O=C(CN1c2cccc3cccc(c23)S1(=O)=O)NCc1ccc2c(c1)OCO2,99,-2.0,26,72,9,i,0.92

# 4 compounds from above, arranged by molar mass, smallest number first:
SMILES,RGS16-Gao,GALR2 agonist,INS promoter inh,INS promoter inh cell count,PKD1 kinase inh,HSV augment,HSV augment primary fold
CCc1cc(=O)oc2cc(OC(C)=O)cc(OC(C)=O)c12,99,1.0,12,121,17,i,0.92
COc1ccc(/C=N/NC(=O)CCc2ccccc2)cc1O,109,0.0,0,123,-4,i,0.8
O=C1NC(=S)S/C1=C\c1coc2ccc(O)cc2c1=O,99,x,x,x,x,i,1.3
O=C(CN1c2cccc3cccc(c23)S1(=O)=O)NCc1ccc2c(c1)OCO2,99,-2.0,26,72,9,i,0.92

# Carrying on.
SMILES,RGS16-Gao,GALR2 agonist,INS promoter inh,INS promoter inh cell count,PKD1 kinase inh,HSV augment,HSV augment primary fold
Cc1ccc(C)c(NC(=O)/C(C#N)=C/c2ccc(Sc3nncn3C)c([N+](=O)[O-])c2)c1,98,-0.8,-13,88,0,i,0.95
O=C(c1cccc(C(F)(F)F)c1)N1CCc2c([nH]c3ccccc23)C1C(F)(F)F (configuration not stated),86,x,x,x,x,i,1
Cc1ccc2c(c1)N(C(C)C(=O)NCCc1ccccc1)C(=O)CO2 (configuration not stated),100,-2.3,54,59,-4,i,0.89
Cc1cc(C)nc(N2CCCC(C(=O)NCc3cccs3)C2)n1 (configuration not stated),139,-0.9,21,73,-10,i,0.95
Cc1ccc(S(=O)(=O)Nc2n[nH]nc2C(=O)NC2CCCCC2)cc1,102,x,40,124,3,i,1
CCN(CC)c1ccc(/C=N/NC(=O)c2ccoc2C)c(O)c1,90,x,x,x,x,i,0.66
Nc1ccc(O)c2c1C(=O)c1ccccc1C2=O,100,-0.3,-14,97,32,i,0.86
Cc1ccc(-c2ccc(=O)[nH]n2)cc1,101,-1.9,40,140,-13,x,x
COc1ccc(/C(N)=N/OC(=O)CCc2ccccc2)cc1,102,x,x,x,-6,i,0.98
CC1(C)CC(=O)C(C=NCC(N)=O)=C(O)C1,151,-3.0,x,x,1,i,1
CCOC(=O)c1cnn(-c2cc(C)cc(C)c2)c1N,102,x,x,x,-3,i,1
CNc1cnn(-c2ccc(C)cc2)c(=O)c1Cl,99,-0.9,29,119,2,i,0.9
CC(CNC(=O)C(=O)NC(C)CCc1ccccc1)Cc1ccccc1 (configuration not stated),103,-1.8,x,x,-10,i,0.73
Cc1ccc(CN2CCN(Cc3ccc4cc(F)ccc4n3)CC2CCO)o1 (configuration not stated),135,x,x,x,-3,i,1
COc1ccc(C(=O)C2CCCN(Cc3cccn3-c3ccccn3)C2)c(C)c1 (configuration not stated),117,x,-33,108,-4,i,0.97
CCCn1c(=O)n(C)c(=O)c2c(SCc3cc(C(C)=O)ccc3OCC)nc(C3CC3)nc21,x,-1.1,64,127,-2,i,0.89
COc1ccc(OC)c(S(=O)(=O)N2CCC(C(=O)N3CCOCC3)CC2)c1,95,x,x,x,-1,i,0.95
O=C(COc1ccc(Cl)cc1)N1CCN(S(=O)(=O)c2ccccc2)CC1,109,-0.6,x,x,11,i,1
CC(C)(C)NC(=O)CN1CCC(O)(c2ccccc2)CC1,102,-2.8,-9,43,2,i,0.98
CCN(CCCNC(=O)COc1cc(=O)n(CC)c2ccccc12)c1ccccc1,102,-0.2,-64,46,-13,x,x
CCc1nnc(NC(=O)CSc2nnc(C)n2-c2ccc(C)cc2)s1,100,-1.2,-364,54,-5,x,x
COc1ccc(N(CC(=O)Nc2cccc(C)c2C)S(=O)(=O)c2c(C)n[nH]c2C)cc1,93,-1.9,x,x,-5,i,0.72
O=C(NNC(=O)c1sccc1-n1cccc1)Nc1ccc(F)cc1,98,x,13,146,-4,i,0.9
CCCn1c(N)c(Sc2ccc([N+](=O)[O-])cc2)c(=O)n(CCC)c1=O,115,x,-27,79,-7,i,0.94
O=C(c1ccccc1Cl)N1CCc2ccccc2C1,98,-1.9,-71,96,-6,i,0.92
CCOC(=O)c1oc2nc(C)c3c(c2c1N)CC(C)(C)OC3,104,-0.9,x,x,-6,i,1.1
Cc1ccc(NC(=O)Cn2nc(C)c3ccccc3c2=O)cc1F,100,-3.1,23,104,-9,i,1.1
COc1ccc(-c2c(C)oc3c(CN4CCCCC4C)c(O)ccc3c2=O)cc1OC (configuration not stated),91,-0.8,14,156,28,i,0.92
Oc1oc(-c2ccccc2)nc1/C=N/c1nccs1,111,-0.3,30,96,-4,i,1
O=C(c1ccc(CS(=O)(=O)c2ccc(Br)cc2)o1)N1CCCCCC1,78,-1.9,x,x,-7,i,0.95
Cc1ccc(CN2CCNC(=O)C2CC(=O)NCCCn2cccn2)o1 (configuration not stated),112,x,x,x,1,i,1.1
CN(C)C(=O)C(CCN1CCC(O)(c2ccc(Cl)cc2)CC1)(c1ccccc1)c1ccccc1,103,0.5,-18,120,13,i,0.74
COc1ccc2nc(/N=C/c3c(C)[nH]n(-c4ccc(C)cc4C)c3=O)sc2c1,138,-1.1,0,59,-3,i,0.97
COC(=O)c1ccc(OC)cc1OCC(=O)N1CCN(c2ccc(F)cc2)CC1,103,-1.1,x,x,1,i,0.93
CCOC(=O)c1ccc(CNC(=O)CSc2nnnn2-c2ccc(Cl)cc2)o1,100,-0.6,-50,119,-1,x,x
O=C(Nc1ccc2c(c1)OCO2)c1cccs1,89,-1.4,41,170,-7,i,0.66
CCCC(=O)Nc1ccc(C(=O)NNC(=S)NC(=O)c2ccc(Br)o2)cc1,99,x,x,x,2,i,0.87
CCOC(=O)N1CCC(NC(=O)c2ccc3c(c2)N(C)CCS3)CC1,98,-2.2,-56,107,-3,i,1.1
Cc1ccc(SC(C)C(=O)N2CCC(C(N)=O)CC2)cc1 (configuration not stated),104,x,x,x,-1,i,0.97
Cc1cc(NC(=O)CCSc2nc(-c3ccco3)cc(C(F)(F)F)n2)n(-c2ccccc2)n1,117,-0.9,21,102,-10,i,0.84
COc1ccccc1S(=O)(=O)n1cc(Cc2ccccc2)c(N)n1,98,1.9,-3,97,1,i,0.98
COc1ccc(CNC(=O)/C=C/C(=O)O)cc1,99,x,x,x,x,i,1.1
Cc1cccc(NS(=O)(=O)c2cc(C(=O)N3CCOCC3)ccc2Cl)c1,96,x,-22,92,-3,i,0.94
CC(C)c1ccc(N=C2N=C(N)c3ccccc32)cc1,99,x,x,x,x,i,0.7
Cc1[nH]nc(-c2ccc(OCc3cnn(-c4ccccc4)c3)c(C)c2O)c1Oc1ccccc1,115,0.1,22,120,6,i,0.91
COc1ccc(OC)c(NC(=S)N2CCN(c3ccccn3)CC2)c1,101,-0.2,x,x,-9,i,0.97
O=C(Nc1ncc(Cc2cccc(Cl)c2Cl)s1)c1ccc([N+](=O)[O-])cc1,92,-1.9,-7,112,-1,i,1
CCSc1nnc2nc3[nH]c4c(C)cccc4c3nn12,101,x,-12,133,-5,i,0.79
COc1ccc(C(=O)Nc2cccnc2Sc2ccc(Cl)cc2)cc1,101,x,x,x,x,i,1.4
Cc1ccccc1C(=O)Nc1nnc(CC(=O)N/N=C/c2ccco2)s1,98,x,x,x,x,i,1.2
CCCCOc1ccc(-c2c(C#N)c(N)nc(SCC(N)=O)c2C#N)cc1,99,4.5,x,x,0,i,0.77
O=C(/C(=C/O)N=Nc1ccccc1Cl)c1ccccc1,101,x,-19,138,-9,i,1.1
CCCc1cc(=O)n2[nH]c(NCc3ccc(OC)cc3)nc2n1,103,x,x,x,2,i,1
Cn1c(N)c(C(=O)COC(=O)C2(c3ccccc3F)CCCC2)c(=O)n(C)c1=O,105,-3.2,x,x,-1,i,1.1
N#Cc1cc2c(=O)n3ccccc3nc2n(-c2ccccc2Cl)c1=O,96,x,-61,48,-6,i,0.8
Cc1c(CCOC(=O)C23CC4(C)CC(C)(CC(C)(C4)C2)C3)sc[n+]1CC(=O)c1ccccc1,99,x,-5,96,2,i,0.87
CN(/N=C/c1cccnc1)c1cnc2ccccc2n1,110,x,78*,96*,5,i,1.1
COCCn1c(C)cc(C(=O)COc2ccc(C)nc2[N+](=O)[O-])c1C,103,x,x,x,0,i,0.92
Cc1cccc2cc(CN(Cc3ccccc3)C(=S)NCCCN(C)C)c(=O)[nH]c12,109,x,x,x,-4,i,0.64
COc1ccc(C)cc1S(=O)(=O)N1CCCCCC1,103,x,x,x,x,i,0.97
# Additional records
SMILES,RGS16-Gao,GALR2 agonist,INS promoter inh,INS promoter inh cell count,PKD1 kinase inh,HSV augment,HSV augment primary fold
COc1cc(C(=O)Nc2ccc(Br)cc2C(=O)c2cc(OC)c(OC)c(OC)c2)cc(OC)c1OC,109,-1.8,x,x,-7,i,0.75
O=[N+]([O-])c1ccc(N/N=C/c2ccccc2)cc1,102,x,x,x,x,i,1.1
CCCCCCN1C=CC=C/C1=C\C=C(C#N)C#N,90,x,x,x,x,u,x
CCN1CCN(c2ccc(NC(=O)c3ccc4c(c3)[nH]c(=O)n4Cc3ccc(F)cc3)cc2)CC1,98,-0.8,11,92,1,i,0.62
O=C(NCCO)c1cc2c(s1)CCC2,101,-1.7,-13,77,-2,i,1.1
O=S(=O)(NCc1csc(-c2cccnc2)n1)c1ccc(Cl)s1,96,-2.8,x,x,9,i,0.89
C=CCNC(=O)C1CCN(S(C)(=O)=O)CC1,105,-2.4,x,x,3,i,1.1
Cc1cccc(NC(=O)c2ccc(S(=O)(=O)N(C)C)cc2)n1,104,-1.4,67,101,5,i,0.87

# Compound activity deposited in PubChem by several laboratories.
